Hsc70: Hsc70 inhibitors, probe displacement, primary screen, biochemical, fluorescence polarization (AID 568). Heat shock cognate 71 kDa protein (Homo sapiens). Hsc70 fluorescence polarization, probe displacement; higher % means a stronger effect; strong numbers were not always called active. displacement, % at 20 µM; hits with a dose series show IC50 in µM. 83,000 tested, under 10 active;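 active = displacement above 50% without optical interference and an IC50 on retest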;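 also: ATPase domain with a fluorescein-tagged ATP probe; 0% = vehicle and 100% = excess ADP; read after one hour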
WNV NS2B-NS3 inh: inhibitors of WNV NS2B-NS3 protease, primary screen, biochemical, fluorogenic substrate; z-score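 (tested at a level between 10 and 100 µM)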; hit rate 0.18% among 65,000; fluorogenic substrate Ex360/Em465; active compounds read low;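 active = z-score at -3 or under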;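 also: score is relative to mean and spread of the compound wells of a plate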
Target sequence (P06935 1371-1501 limits assumed): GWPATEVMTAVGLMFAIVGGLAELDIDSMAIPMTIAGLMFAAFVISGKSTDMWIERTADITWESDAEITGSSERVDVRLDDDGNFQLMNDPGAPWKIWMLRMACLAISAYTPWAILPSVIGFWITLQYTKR
Target sequence (P06935 1502-1679 limits assumed): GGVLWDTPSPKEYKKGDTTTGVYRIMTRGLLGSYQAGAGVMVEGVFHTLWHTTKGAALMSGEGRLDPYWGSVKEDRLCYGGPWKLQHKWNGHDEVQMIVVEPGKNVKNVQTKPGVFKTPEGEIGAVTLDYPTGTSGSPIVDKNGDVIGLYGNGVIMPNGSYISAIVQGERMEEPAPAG
MT1-MMP promoter: inhibitors of MT1-MMP promoter transcription, cell-based, luciferase reporter, luminescence (AID 618); hit rate 0.62% among 87,000; calls from a first round at 10 µM; hits with a dose series show EC50 in µM; MT1-MMP promoter luciferase reporter cells, luminescence;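 active = over half of the reporter light lost at 10 µM or EC50 under 50 µM; inactive = the rest and hits that failed the dose series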;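 also: actives suppress MT1-MMP promoter-driven transcription so potencies describe inhibitors; HT1080 fibrosarcoma cells; overnight exposure; toxic or luciferase-blocking compounds were not removed from the actives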
Numbers without * were called inactive; i = inactive; · = no result given.

| Molecule | Hsc70 | WNV NS2B-NS3 inh | MT1-MMP promoter |
| --- | --- | --- | --- |
| CCOC(=O)C1CCCN(c2nc3ccccc3nc2C(C#N)C(=O)OC(C)COC)C1 (stereo unspecified) | -3.2% | 0.12 | i |
| Cc1nnc(N(C)C(=O)c2cccnc2)s1 | 3.2% | 0.23 | i |
| CCCCN(C)C(=O)c1cn(CC)c2ccc(S(=O)(=O)N(C)C)cc2c1=O | 0.5% | -1.32 | i |
| Cc1cc(C)n2nc(C(=O)Nc3ccc4c(c3)OCO4)nc2n1 | 4.3% | -1.52 | i |
| Cc1ccc2occ(C(c3nnnn3C3CCCC3)N3CCN(C(=O)c4ccco4)CC3)c(=O)c2c1 (stereo unspecified) | -0.2% | 1.16 | i |
| COc1ccc(S(=O)(=O)Nc2c(C)ccc3nsnc23)cc1OC | 3.1% | -0.8 | i |
| CCc1cc(C=C(Cl)Cl)oc(=O)c1C | 0.0% | 0.14 | i |
| CC(C)OC(=O)C1C2C=CC3(CN(Cc4cccs4)C(=O)C13)O2 (stereo unspecified) | 4.0% | 0.89 | i |
| C#CCOC(=O)c1ccccc1C(=O)O | 2.6% | · | i |
| Cc1ccc(N2C(=O)c3sc4nnc(C)c(=O)n4c3C2=O)cc1 | 2.8% | 0.16 | i |
| Cc1nn(-c2ccccc2)c(Cl)c1C(=O)Nc1c(C)n(C)n(-c2ccccc2)c1=O | 0.2% | -0.94 | i |
| O=C(NCC1CCC(C(=O)O)CC1)OCc1ccccc1 (stereo unspecified) | -0.3% | · | i |
| Cc1ccc(-n2c(=O)[nH]cc(C(=O)Nc3ccc4c(c3)OCCO4)c2=O)cc1 | 0.3% | 1.4 | i |
| O=C(CN1CCN(S(=O)(=O)c2ccc(F)cc2)CC1)Nc1ccccc1F | -4.3% | -0.55 | i |
| CC1(C)CC(=O)C2=C(C1)OC(N)=C(C#N)[C@@]21C(=O)N(CC(N)=O)c2ccccc21 | 1.2% | 0.63 | i |
| Cc1nnc(SCCn2c(N3CCCCC3)nc3c2c(=O)n(C)c(=O)n3C)s1 | -0.6% | 0.08 | i |
| C=CCN1C(=O)C(O)(CC(=O)c2ccc(-n3cccc3)cc2)c2ccccc21 (stereo unspecified) | -2.4% | -0.72 | i |
| Cc1cc(N(CCO)CCO)nc(-n2nc(C)cc2C)n1 | 3.9% | · | i |
| CCS(=O)(=O)N1CCC(C(=O)OCC(=O)c2ccc(Br)cc2)CC1 | -8.4% | 0.44 | i |
| Cc1onc(-c2ccccc2Cl)c1C(=O)NCc1ccccc1 | -1.2% | · | i |
| CCOC(=O)N1CCN(C(=O)Nc2ccc3oc(C)nc3c2)CC1 | -1.1% | -0.65 | i |
| Cc1cccc2cc(C(c3nnnn3Cc3ccccc3)N3CCN(C)CC3)c(=O)[nH]c12 (stereo unspecified) | -5.3% | 1.5 | i |
| C[N+](C)(C)CCNC(=O)c1c(O)c2c([nH]c1=O)CCCC2 | -2.0% | -0.03 | i |
| COc1ccc(OC)c(N/C(=N\c2nc(C)cc(C)n2)NC(=O)c2ccco2)c1 | -5.0% | 0.08 | i |
| NS(=O)(=O)c1ccc(S(=O)(=O)NCCc2ccccc2)cc1 | 0.0% | -1.02 | i |
| CCCOc1ccc2oc(=O)c3c(c2c1)CCCN3C(=O)CN1CCCC(C(=O)OCC)C1 (stereo unspecified) | 1.1% | -1.19 | i |
| CCc1cc[n+](-c2nc3ccccc3nc2C(=C=[N-])C#N)cc1 | 2.6% | · | i |
| CCOc1ccc(CN(C(=O)c2cc3ccccc3oc2=O)C2CC2)cc1 | 0.5% | · | i |
| COc1ccc(OC)c(CNC(=O)C2CCN(C(=O)N(C)C)CC2)c1 | 6.1% | 0.13 | i |
| COC(=O)c1cc2c([nH]c3ccccc32)c(C)n1 | 1.4% | 1 | i |
| Cc1cccc(C)c1OCC(O)Cn1ccnc1C (stereo unspecified) | -5.1% | 1.95 | i |
| COc1cc(/C=C2/OC(=O)c3cc([N+](=O)[O-])ccc32)cc(OC)c1OC | -1.8% | · | i |
| Cc1cccc(C)c1NC(=O)Nc1cccs1 | 1.9% | 0.19 | i |
| CC(C)Cc1nc(N2CCN(C(=O)c3ccccc3)CC2)c(C#N)c2c1CCC2 | 2.5% | · | i |
| COc1cc(NC(=O)Nc2cccc(Cl)c2)c(OC)cc1NC(=O)CN1CCCCC1 | 0.4% | -1.45 | i |
| CCCn1c(C)cc(C(=O)CSc2nnc3n(CCC)c(=O)c4ccccc4n23)c1C | -1.5% | 1.31 | i |
| Cc1cc(C)n2nc(C(=O)OCC(=O)c3cc(C)n(C)c3C)nc2n1 | -3.7% | 0.67 | i |
| COCCOC(=O)C1=C(C)N=C2SCCC(=O)N2C1c1ccc(OC(=O)c2ccco2)cc1 (stereo unspecified) | 5.1% | · | i |
| CCCN(CCC)CCCNC(=O)CC(C(=O)N1CCc2ccccc21)n1ccnc1 (stereo unspecified) | 1.0% | -0.61 | i |
| OC(Cn1nnc2ccccc21)Cn1c(C(F)(F)F)nc2ccccc21 (stereo unspecified) | 3.8% | -0.31 | i |
| COc1ccccc1CNC(=O)Cn1cc2c(n1)CCCC2 | 2.0% | -0.26 | i |
| CC1CCc2c(sc(NC(=O)c3ccc(Cn4cc(Br)cn4)o3)c2C(N)=O)C1 (stereo unspecified) | -19.3% | 0.13 | i |
| Cc1cc(NC(=O)CSCCc2ccncc2)no1 | -3.8% | 0.42 | i |
| O=C(c1cccc(F)c1)N1CCN(Cc2ccco2)CC1 | -2.6% | 0.69 | i |
| O=c1cc(CNC2CCCCC2)c2ccccc2[nH]1 | -6.3% | 0.47 | i |
| Cc1cccc(OCCCn2ccnc2)c1 | -1.3% | 1.9 | i |
| O=C(NCCCN1CCOCC1)c1ccco1 | 0.6% | 1.26 | i |
| COc1cc(/C=C2/C(=N)N3C=CSC3=NC2=O)ccc1OCCCOc1ccccc1C | -8.9% | · | i |
| O=C(CCCc1nc(-c2ccc(Cl)cc2)no1)N1CCOCC1 | 5.1% | -1.44 | i |
| CCn1c(SCC(=O)N2CCOCC2)nc2c(c1=O)SC(C)C2 (stereo unspecified) | 8.7% | 0.92 | i |

In the list so far, 4 have two or more sulfur atoms:
| Molecule | Hsc70 | WNV NS2B-NS3 inh | MT1-MMP promoter |
| --- | --- | --- | --- |
| COc1ccc(S(=O)(=O)Nc2c(C)ccc3nsnc23)cc1OC | 3.1% | -0.8 | i |
| Cc1nnc(SCCn2c(N3CCCCC3)nc3c2c(=O)n(C)c(=O)n3C)s1 | -0.6% | 0.08 | i |
| NS(=O)(=O)c1ccc(S(=O)(=O)NCCc2ccccc2)cc1 | 0.0% | -1.02 | i |
| CCn1c(SCC(=O)N2CCOCC2)nc2c(c1=O)SC(C)C2 (stereo unspecified) | 8.7% | 0.92 | i |

More structures.
| Molecule | Hsc70 | WNV NS2B-NS3 inh | MT1-MMP promoter |
| --- | --- | --- | --- |
| Fc1c(F)c(C(F)(F)F)c(F)c(F)c1N1CCN(c2ccc3nnc(C(F)(F)F)n3n2)CC1 | -2.7% | -1.22 | i |
| O=C(c1cc2n(n1)C(C(F)(F)F)CC(c1ccc(F)cc1)N2)N1CCCC1 (stereo unspecified) | 0.3% | -0.26 | i |
| COC(=O)c1cc(OC)c(OC)c(OC)c1NC(=O)c1ccc(S(=O)(=O)N(C)C)cc1 | 4.1% | 1.35 | i |
| C=CCOc1ccc(C2C(C(=O)c3ccco3)=C(O)C(=O)N2CCCN(CC)CC)cc1 (stereo unspecified) | 2.7% | -0.39 | i |
| CCOc1ccc(NC(=O)c2ccc3c(c2)N(Cc2ccc(F)cc2)C(=O)CS3=O)cc1 (stereo unspecified) | -1.0% | -0.07 | i |
| CCc1ccccc1N1CCN(S(=O)(=O)c2cc(OC)ccc2OC)CC1 | 7.0% | -0.47 | i |
| Nc1ncnc2nc(SCCN3CCCCC3)[nH]c12 | 5.9% | -0.13 | i |
| CC1=C(C(=O)N(C)CCC#N)C2(CCCCC2)OC1=O | -1.4% | -2.15 | i |
| CCOc1ccc(C(OC(=O)c2ccco2)C(=O)NCc2ccc(C)cc2)cc1 (stereo unspecified) | 0.8% | · | i |
| COC(=O)C1C(=O)CC(C)(O)C(C(=O)OC)C1c1ccc2c(c1)OCO2 (stereo unspecified) | 1.0% | 0.15 | i |
| CCCOc1ccc(C2c3c(oc4cc(C)c(C)cc4c3=O)C(=O)N2CCCN2CCOCC2)cc1 (stereo unspecified) | 0.3% | -1.35 | i |
| Cc1cc(C(F)(F)F)nc(SCC(=O)Nc2ccccc2)n1 | 7.8% | -0.76 | i |
| O=C(CN1CCN(S(=O)(=O)c2cc(Cl)ccc2Cl)CC1)Nc1ccc2c(c1)OCCO2 | -4.0% | 1.26 | i |
| Cc1cc(NC(=O)c2cc(C)on2)no1 | 0.9% | 0.55 | i |
| O=C(O)c1ccc(CN(c2ccccn2)S(=O)(=O)c2ccccc2)cc1 | -3.5% | -0.48 | i |
| Cc1ccc(N2C(N)=C(C#N)C(c3cccnc3)C3=C2CCCC3=O)cc1 (stereo unspecified) | -5.4% | -0.00312 | i |
| COc1ccc(C(=O)C[N+]2(C)CCOCC2)cc1 | -1.5% | · | i |
| CCCn1c(O)c(CN2CCCCC2)c(C)c(C#N)c1=O | -20.4% | -0.74 | i |
| Cc1onc(-c2ccccc2)c1C(=O)N1CCCN(C(=O)c2c(-c3ccccc3)noc2C)CC1 | -0.5% | -0.52 | i |
| CCn1cc(S(=O)(=O)CC(=O)Nc2cc(C)ccc2C)c2ccccc21 | 0.4% | -0.99 | i |
| COCc1nnc(NS(=O)(=O)c2ccc(Br)cc2)s1 | 1.0% | -0.86 | i |
| CSc1ccc(S(=O)(=O)NCc2ccccc2)cc1 | 1.6% | · | i |
| Cc1ccc(C(=O)Nc2nc(-c3cccnc3)cs2)o1 | -2.2% | · | i |
| Cc1ccc(S(=O)(=O)NCC2CCC(C(=O)NCCCN3CCOCC3)CC2)cc1 (stereo unspecified) | -6.4% | 1.38 | i |
| Cc1nnc(NC(=O)CCSc2ccccc2)s1 | -5.2% | -0.9 | i |
| Cc1ccc(S(=O)(=O)NCC(c2cccnc2)N(C)C)cc1 (stereo unspecified) | 6.0% | -0.13 | i |
| O=C(C1CCN(S(=O)(=O)N2CCOCC2)CC1)N1CCN(Cc2ccc3c(c2)OCO3)CC1 | 8.3% | -0.1 | i |
| O=C(NC1CCCCCCC1)C1CCC(CNc2c(N3CCCC3)c(=O)c2=O)CC1 (stereo unspecified) | 0.1% | 0.19 | i |
| CN(C(=O)c1ccncc1)c1nnc(-c2cccnc2)s1 | 6.0% | 0.75 | i |
| Nc1nonc1-n1nnc(C(=O)O)c1-c1cccs1 | 2.0% | -0.47 | i |
| COc1ccc(-c2cc(C(F)(F)F)n3nc(C(=O)Nc4cc(C)on4)cc3n2)cc1OC | -5.4% | -0.28 | i |
| COc1ccc(-c2cn3c(C)c(C(=O)N4CCN(c5ccc(OC)cc5)CC4)sc3n2)cc1 | 5.1% | -0.36 | i |
| Cc1nc2ccccn2c1P(=Nc1ccccc1)(N(C)C)N(C)C | 5.7% | -0.58 | i |
| CCN(CC)C(=O)COc1ccc(Br)cc1Cl | 3.5% | -0.74 | i |
| O=C(CSc1ccc2nnc(-c3ccncc3)n2n1)N1CCc2ccccc21 | -0.5% | -1.1 | i |
| CCOC(=O)N1CCN(C(=O)CSc2ccccc2)CC1 | 0.1% | 0.000384 | i |
| O=S(=O)(NCCOc1ccc(F)cc1)c1ccc2c(c1)OCCO2 | -3.9% | -0.34 | i |
| Cc1ccccc1CN1C(=O)Nc2ccccc2C(=O)N1C(C)(C)C | 4.6% | · | i |
| CCCOc1ccc(C(C)=O)cc1CSCCC#N | 3.1% | -0.23 | i |
| CCOc1ccc(NC(=O)CSc2nc3c(c(=O)n2-c2ccccc2OC)SCC3)cc1 | -0.4% | -1.63 | i |
| CC1CCc2c(nc3ncnn3c2Nc2ccc(OC(F)(F)F)cc2)C1 (stereo unspecified) | -2.4% | · | i |
| COc1cccc2cc(C(=O)NC(C)C3CCCO3)c(=O)oc12 (stereo unspecified) | -4.3% | -0.63 | i |
| O=C(NCC1CCCO1)c1c(O)c2c([nH]c1=O)CCCC2 (stereo unspecified) | -0.5% | -0.00493 | i |
| CNc1oc(-c2cccc3ccccc23)nc1C#N | 2.0% | 0.97 | i |
| Oc1ccccc1C1=Nc2ncnn2C(c2ccccc2)C1 (stereo unspecified) | 2.9% | -1.05 | i |
| CN(CC1CCCO1)S(=O)(=O)c1ccc(C(=O)Nc2nc3cc4c(cc3s2)OCO4)cc1 (stereo unspecified) | 2.6% | 0.96 | i |
| O=C(Oc1ccc(Cl)c2cccnc12)N1CCOCC1 | 2.6% | -0.23 | i |
| CCOC(=O)CCc1nc2ccccc2[nH]c1=O | -0.8% | 0.54 | i |
| O=c1n(-c2cccc(Cl)c2)c(=O)n2n1CCC2 | -2.6% | 0.1 | i |
| COc1ccc(CNC(=O)CS(=O)Cc2nc(-c3ccc(C)cc3)oc2C)cc1 (stereo unspecified) | 8.8% | 0.2 | i |
| CCOC(=O)Cc1csc(NC(=O)COc2ccc(N(C)S(=O)(=O)c3cccs3)cc2)n1 | -7.7% | 2.02 | i |
| CN(CC(=O)Nc1ccccc1C(=O)N1CCCC1)S(=O)(=O)c1ccc(Br)cc1 | -7.0% | · | i |

Screens as filed in PubChem BioAssay.

An excerpt; the hit share may differ from the screen's.
